Screens from PubChem.
StopGo RLuc: FMDV 2A StopGo reporter, Renilla signal; Potency, µM (series often up to 57.5 µM), for the others: at the top dose signal change, negative = less light; hit rate 0.32% among 120,000; HEK cells with a luciferase reporter of 2A StopGo recoding; active means well fitted falling curve with a large enough effect; inconclusive means small, poorly fitted or top-dose-only effect; inactive means no such curve, though single readings can be large or run the other way; note: nearly all actives have a fitted effect of over 55% in size; overnight with compound
2A firefly: FMDV 2A StopGo reporter, firefly signal. Potency, µM (doses to about 57.5 µM), for the others: at the top dose signal change, negative = less light. HEK cells with a luciferase reporter of 2A StopGo recoding. hit rate 0.23% among 120,000; active = well fitted falling curve with a large enough effect; inconclusive = small, poorly fitted or top-dose-only effect; inactive = no such curve, though single readings can be large or run the other way; note: nearly all actives have a fitted effect of over 60% in size; overnight with compound
An asterisk follows results filed as active; ? = inconclusive; [ ] = remark or other dose. % is set by controls: 0 for no effect and ±100 for the full control effect; potency is the fitted concentration of half-maximal effect.

SMILES	StopGo RLuc	2A firefly
Cc1ccc(CNC(=O)CCn2ccc3cc(S(=O)(=O)N4CCCC4)ccc32)cc1	59%[activator]	-12%
CN(CCCNC(=O)c1ccccn1)CC(F)(F)F	0%	0%
Cc1cc(C)c(S(=O)(=O)NCCc2cc3cc(C)c(C)cc3[nH]c2=O)c(C)c1	-13%	-22%
CCn1c(NCc2ccc(OC)cc2)nc2ccccc21	-11%	66%[activator]
CC(=O)Nc1ccc(NC(=O)CSc2nc(Cl)nc3nc[nH]c23)cc1	-1%	10%
O=C(NCc1ccc(C(=O)N2CCCCC2)cc1)c1cc2ccccc2oc1=O	-13%	46%[activator]
CCc1ccc(C(=O)CC2(O)C(=O)N(CCc3ccccc3)c3ccc(Cl)cc32)cc1 (configuration not stated)	0%	-3%
CC(C)(C)C(=O)Nc1cccc(NC(=O)Cc2ccccc2Cl)c1	79%[activator]	-6%
COCCn1c(SCC(=O)c2cc(C)c(C)cc2C)nnc1-c1ccc(Cl)cc1	17%	4%
Cc1nc2nc3ccn(CCN4CCOCC4)c(=O)c3c(-c3ccccc3)n2n1	13%	-1%
Cc1cc(O)c(C(c2ccc(F)cc2)N2CCCCC2)c(=O)n1Cc1ccco1 (configuration not stated)	92%[activator]	-27%
CCN1CCC(N(C(=O)c2cn(C)c3ccccc23)C2CC2)CC1	-9%	-2%
CCCc1c(C(=O)OCC)[nH]c2c1C(=O)CC(c1ccc(CC)cc1)C2 (configuration not stated)	12%	20%
Cn1cc(C(C(=O)O)N2CCC(Cc3ccccc3)CC2)c2cc(C(=O)O)ccc21 (configuration not stated)	0%	2%
CC(C)C(=O)N/N=C/c1ccc(Cl)cc1	-3%	91%[activator]
O=C(COc1ccc(Br)cc1Br)Nc1ccc(S(=O)(=O)Nc2ncccn2)cc1	-9%	-14%
CC(=O)c1cccc(NC(=O)N2CCC(CN3CCCCC3)CC2)c1	-11%	-8%
COc1cc(C(=O)Nc2nnc(CC(C)(C)C)s2)cc(OC)c1OC	40%[activator]	24%
COc1ccccc1-n1cc(C(=O)c2cc(Br)ccc2O)cc(C#N)c1=O	50%[activator]	-13%
CCCCCCn1c(NC)nc2c1c(=O)[nH]c(=O)n2C	16%	15%
Cc1ccc(C2CCCN2S(=O)(=O)c2cnn(C(F)F)c2C)cc1 (configuration not stated)	9%	-8%
CN(Cc1ccccc1)C1CCN(Cc2ccc(F)cc2)CC1	-2%	-5%
CN(CC(=O)Nc1ccccc1Br)C(=O)CCc1ncc(-c2ccc(F)cc2)o1	-3%	100%[activator]
Cc1oc(-c2cccs2)nc1CC(=O)NCc1ccc(F)cc1	15%	21%
Cc1ccccc1Cc1c(C)nc(N2CCN(Cc3ccccc3)CC2)[nH]c1=O	1%	9%
O=C(NC1CCN(Cc2ccccc2)CC1)c1ccc(Cn2c(=O)c3ccccc3n(Cc3ccc(Cl)cc3)c2=O)cc1	-4%	6%
CC1CCCCC1NC(=O)c1ccc2c(Cl)c3c(nc2c1)CCCC3 (configuration not stated)	28%	104%[activator]
CCOc1ccc(CCNC(=O)c2ccc3c(c2)c(C)c(C)n3C)cc1	-7%	-19%
COc1ccc(C)cc1-n1c(SCC(=O)Nc2ccc3c(c2)OCO3)nc2ccccc2c1=O	-5%	-10%
Cc1cc(C)cc(NS(=O)(=O)c2c(C)[nH]c(C)c2C(=O)N2CCCC2)c1	154%[activator]	13%
Cc1ccc2nc(-c3ccccn3)cc(C(=O)O)c2c1	20%	21%
N#CC1=C(N)OC2=C(C(=O)CCC2)C1c1ccc(C(F)(F)F)cc1 (configuration not stated)	-9%[1.06 µM]	6%
CCC(C(=O)Nc1cc(OC)ccc1OC)n1c(C)c2cnn(-c3ccccc3)c(=O)c2c1C (configuration not stated)	-8%	10%
Cn1ccc2cc(S(=O)(=O)N3CCCC(C(=O)NCc4ccccc4)C3)ccc21 (configuration not stated)	20%	-18%
CCCOc1ccc(NC(=O)c2ccc(Cl)cc2)c2cccnc12	-7%	12%
CC(C(=O)N(C)C1(C#N)CCCCC1)N(C)CC(=O)Nc1cccc(F)c1 (configuration not stated)	-7%	1%
Cc1ccc(C(=O)C(C)C(=O)c2ccc(C)cc2)cc1	22%	23%
CC1=C(C(=O)Nc2ccccc2Br)C2(CCC(C)CC2)OC1=O (configuration not stated)	16%	0%
COc1cc(C(=O)Nc2ncccc2C)cc(Cl)c1OC	16%	57%[activator]
Cc1cc(OC(=O)c2ccc(CSc3ccc(Cl)cc3)cc2)ccc1C(C)C	-3%	-6%
Cc1ccccc1-n1c(SCC(=O)Nc2ccc(Cl)cc2Cl)nc(O)cc1=O	4%	15%
c1ccc(-c2cnc(CSc3nnc(NC4CC4)s3)o2)cc1	-3%	22%
CCOc1cc(/C=C(/C#N)c2ccc(F)cc2)cc(Cl)c1OCc1ccccc1C#N	6%	-2%
COCCCNC(=O)CCc1ncc(-c2ccccc2F)o1	-1%	17%
CCCS(=O)(=O)NCCc1sc2nc(-c3ccc(Cl)cc3)nn2c1C	?	?
Cc1cc(C)cc(Nc2ncnc3c2nc2n3CCCC2)c1	?	-9%
O=C(Cn1c(=O)n(Cc2ccc(C(=O)NCc3ccccc3Cl)cc2)c(=O)c2ccccc21)Nc1ccc(F)cc1	-9%	6%
Cc1ccc(NC(=O)c2ccc3oc(=O)c(S(=O)(=O)c4ccccc4)cc3c2)cc1C	-10%	-1%
CCn1cc(C#N)c(=O)n(Cc2nnc(-c3ccccc3)o2)c1=O	-11%	6%
COc1cccc(Cc2nc3ccccc3nc2SCC(=O)Nc2cccc(OC)c2)c1	13%	-12%
Cc1cc(C)n(-c2ncnc3scc(-c4ccc(Cl)cc4)c23)n1	-5%	-6%
O=C(Cc1n[nH]c(=O)c2ccccc12)N1CCCC1	-17%	-5%
CCONC(=O)c1ccc2c(c1)NC(=O)C(C)S2 (configuration not stated)	32%[activator]	16%
CC(C)CC1=NN(C(=O)c2ccncc2)C(O)(C(F)(F)F)C1 (configuration not stated)	-7%	2%
O=C(CN1C(=O)c2ccccc2Sc2ccc(C(=O)N3CCOCC3)cc21)Nc1ccc(Cl)cc1F	?	?
Cc1cccc(N2CCN(c3ncnc4onc(C)c34)CC2)c1C	-5%	-6%
CCOC(=O)c1c(NC(=O)C(C)Oc2ccc(Cl)c(C)c2)sc2c1CCCC2 (configuration not stated)	-5%	-4%
CC(C)Oc1ccc(C(=O)N2CCN(Cc3nc(N)c4ccccc4n3)CC2)cc1	-4%	11%
CC(C)(C)C(=O)Nc1nc2nc(-c3ccccc3)cc(=O)n2[nH]1	-9%	8%
O=C(Nc1cccc(-c2nc3ncccc3o2)c1)c1cc2ccccc2o1	32%[activator]	60%[activator]
More structures follow.
SMILES	StopGo RLuc	2A firefly
Cc1ccc(-c2ccccc2N)cc1	-9%	35%[activator]
CN(CC(=O)Nc1cccc(Cl)c1)S(=O)(=O)c1ccc2[nH]c3c(c2c1)CCCC3	-5%	-11%
CCOCCCNCc1c(OCC)ccc2ccccc12	-5%	-16%
CCN1CCN(CCCNC(=O)c2cnn(-c3ccccc3Cl)c2C2CCN(C(=O)OC(C)(C)C)CC2)CC1	-15%	-10%
c1ccc(CCN2CCC(NC3CCCC3)CC2)cc1	-8%	-18%
CCc1ccccc1NC(=O)C1CCN(C(=O)N2CC(C)Oc3ccc(Cl)cc32)CC1 (configuration not stated)	-8%	1%
O=C(Nc1ccccc1)C(Sc1cccc[n+]1[O-])c1ccccc1 (configuration not stated)	32%[activator]	15%
CC(C)c1ccc(NC(=O)c2ccc3c(c2)CCN3S(=O)(=O)c2ccccc2)cc1	17%	-16%
Cc1cccc(N2CCN(c3nc4ccccc4c4nc(-c5ccccc5)nn34)CC2)c1C	7%	-7%
Cc1cc(C(=O)CSc2nnc(COc3ccc(Cl)cc3)n2C)c(C)n1CC(F)(F)F	17%	12%
CCOC(=O)CCCCCNCc1ccccc1	-2%	-6%
CCCOc1ccc(-c2nc(C#N)c(N3CCN(Cc4ccccc4)CC3)o2)cc1	6%	-3%
COC(=O)c1c(CN2CCC(C(N)=O)CC2)nc2ccccc2c1C	-9%	1%
CCCCCOc1ccc(C(=O)C(CCC(CNC(C)(C)C)C(=O)c2ccc(OCCCCC)cc2)CNC(C)(C)C)cc1 (configuration not stated)	-20%	-6%
CCN(CC)C(=O)CSc1nc2ccsc2c(=O)n1C	15%	12%

Laid out differently: four of the compounds above.
canonical_smiles: Cc1ccc(C2CCCN2S(=O)(=O)c2cnn(C(F)F)c2C)cc1 (configuration not stated)
  StopGo RLuc = 9%; 2A firefly = -8%
canonical_smiles: Cc1oc(-c2cccs2)nc1CC(=O)NCc1ccc(F)cc1
  StopGo RLuc = 15%; 2A firefly = 21%
canonical_smiles: CCN1CCC(N(C(=O)c2cn(C)c3ccccc23)C2CC2)CC1
  StopGo RLuc = -9%; 2A firefly = -2%
canonical_smiles: N#CC1=C(N)OC2=C(C(=O)CCC2)C1c1ccc(C(F)(F)F)cc1 (configuration not stated)
  StopGo RLuc = -9%[1.06 µM]; 2A firefly = 6%

The results go on:
SMILES	StopGo RLuc	2A firefly
Cc1nc2cc(NC(=O)c3cccc(S(=O)(=O)Nc4cccc(Cl)c4)c3)ccc2o1	22%	-21%
COc1ccc(CC(=O)Nc2c(C(=O)Nc3ccccc3F)oc3ccccc23)cc1	-9%	36%[activator]
O=C(Cn1c(=O)nc(-c2ccccc2)c2ccccc21)NCCc1ccccc1	-1%	4%
CC1=C(C(N)=O)C(c2cccc(C)c2)n2nc(-c3ccc(Cl)cc3)nc2N1 (configuration not stated)	-1%	13%
CCCCn1nc(C(=O)Nc2nnc(Cc3ccccc3)s2)c2ccccc2c1=O	7%	6%
Nc1nccnc1C(=O)Nc1ccc(Nc2ccccc2)cc1	8%	39%[activator]
CCOC(=O)c1ccc(NC(=O)CCC(=O)N2CCSc3ccccc32)cc1	-1%	-7%
COc1ccc(OC(C)c2nc3ccccc3[nH]2)cc1 (configuration not stated)	5%	18%
COCCCNC(=O)Cn1cnc2sc(C)c(S(=O)(=O)N3CCC(C)CC3)c2c1=O	-4%	-2%
Cc1ccc(CNC(=O)CCC(=O)N2CC(C)Sc3ccccc32)cc1 (configuration not stated)	-11%	-15%
CCC(=O)N1CCc2cc(Br)cc(S(=O)(=O)NCCc3ccc(OC)c(OC)c3)c21	230%[activator]	1%
Cc1cc(C)c(C(=O)COC(=O)/C=C/c2cccs2)c(C)c1	-6%	19%
O=C(c1ccc2c(c1)N(Cc1ccccc1)C(=O)c1ccccc1S2(=O)=O)N1CCN(c2ccccn2)CC1	0%	18%
O=C(CN1CCN(C(=O)CCc2ncc(-c3ccccc3Cl)o2)CC1)Nc1ccc(F)cc1	-24%	-13%
Cc1ccc(CNc2nccn(-c3cc(C)cc(C)c3)c2=O)cc1	10%	-6%

Profiles from above.
CC1=C(C(N)=O)C(c2cccc(C)c2)n2nc(-c3ccc(Cl)cc3)nc2N1 (configuration not stated) as listed: StopGo RLuc: -1%; 2A firefly: 13%
COCCCNC(=O)Cn1cnc2sc(C)c(S(=O)(=O)N3CCC(C)CC3)c2c1=O as listed: StopGo RLuc: -4%; 2A firefly: -2%

(continued)
SMILES	StopGo RLuc	2A firefly
O=c1[nH]nc(-c2ccco2)c2c1Nc1nnnn1C2c1ccc(F)cc1 (configuration not stated)	60%[activator]	19%
Cc1ccc(NC(=O)C2CCCN(S(=O)(=O)c3c(C)n[nH]c3C)C2)cc1Cl (configuration not stated)	-3%	5%
O=C(Cn1ccn2nc(-c3ccccc3)cc2c1=O)Nc1cccc(Cl)c1	-2%	-8%
COc1ccccc1CNc1nc(-c2ccc(C)cc2)cs1	-5%	136%[activator]
C#CCOc1cc(Br)c(/C=C2\NC(=O)NC2=O)cc1OCC	?	?
COc1ccc(Cl)cc1N(CC(=O)Nc1c(C)n(C)n(-c2ccccc2)c1=O)S(C)(=O)=O	-4%	3%
Cc1oc(-c2ccccc2Cl)nc1CS(=O)(=O)CC(=O)NCc1ccc(F)cc1	28%	-19%
C[C@H](N)C(=O)N[C@@H](C)C(=O)NC1[C@H]2CN(c3nc4c(cc3F)c(=O)c(C(=O)O)cn4-c3ccc(F)cc3F)C[C@@H]12 (some centres not stated)	182%[activator]	46%[activator][11.5 µM]
CNC(=O)c1ccc(NC(=O)C2CCN(S(=O)(=O)c3cccc(C(F)(F)F)c3)CC2)cc1	2%	0%
CC(C)(Oc1ccccc1)C(=O)Nc1ccccc1C#N	9%	31%[activator]
CCCN(Cc1ccccc1)C(=O)CCc1cccs1	44%[activator]	0%
Nc1nc(CN2CCN(C(=O)c3cc(Cl)cc(Cl)c3)CC2)nc2ccccc12	-8%	-7%
COC(=O)c1cc(NCc2cccc3ccccc23)ccc1N1CCOCC1	1%	0%
CC(=O)NC(NC(C)=O)C(Cl)(Cl)Cl	7%	19%
COc1ccc(/C=C/c2nc3cc(C)c(C)cc3s2)c(OC)c1OC	25%	57%[activator]
CCc1ccc2oc(=O)cc(-c3oc4ccccc4c3N)c2c1	-10%	51%[activator]
O=C(NC1CCC(C(F)(F)F)CC1)C1CCCCC1 (configuration not stated)	-3%	20%
CCCOc1ccc(C(=O)N(Cc2ccccc2Cl)C2CCS(=O)(=O)C2)cc1 (configuration not stated)	0%	-11%
CCc1ccc(C(=O)CSc2nc(-c3ccccc3)nc3c2CCCC3)cc1	-9%	-10%
O=[N+]([O-])c1cc(S(=O)(=O)Nc2ccc(Cl)cc2)ccc1N/N=C/c1ccccc1Cl	73%[activator]	?
Cc1ccc(/C=C/C(=O)/C=C/c2ccc(C)cc2)cc1	38%[activator]	67%[activator]
COc1cccc(OCc2nc3ccccc3n2CCOc2cccc(C)c2)c1	19%	71%[activator]

Not all compounds are listed. The share of hits here may be higher or lower than overall.
